# AmpC inh no det: blocks E. coli AmpC beta-lactamase in absence of detergent; P00811; AmpC nitrocefin hydrolysis, absorbance 480 nm, no detergent; potencies from a single point are estimates; Potency, µM (top dose mostly 28.7 µM), for inactives: top-dose activity change, negative = inhibition; 71,000 compounds, 1.8% hits; AID 585; active = falling curve, for most hits resting on a single point; inconclusive = weak or doubtful change; inactive = flat or rising curve; also: % of control where 0% means no effect; about half of the hits show no inhibition at the top dose; a quarter of the inactives give rising signals
# Target sequence (P00811 whole entry, looked up): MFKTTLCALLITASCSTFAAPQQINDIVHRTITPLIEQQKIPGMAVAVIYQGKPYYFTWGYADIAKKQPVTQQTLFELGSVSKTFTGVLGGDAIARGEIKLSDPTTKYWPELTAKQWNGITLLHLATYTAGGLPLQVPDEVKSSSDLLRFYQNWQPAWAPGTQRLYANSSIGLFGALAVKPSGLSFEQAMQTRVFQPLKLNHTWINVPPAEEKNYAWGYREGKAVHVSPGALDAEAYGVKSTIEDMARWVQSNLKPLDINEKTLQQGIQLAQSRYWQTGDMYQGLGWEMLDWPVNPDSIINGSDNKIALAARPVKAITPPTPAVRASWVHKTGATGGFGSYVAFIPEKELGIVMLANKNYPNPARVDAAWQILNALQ
#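 AmpC, 20 mM phosphate pH 7.0; 15 min cpd preinc, RT; start with nitrocefin (800 uM stock); A480 kinetic read, 20 s intervals, 4 min. No-enzyme wells = negative control.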
# Numbers without * were called inactive; [ ] = remark or other dose. Potency is read from the fitted curve at half-maximal effect. Only part of the results is shown (hit frequency here may not be typical).
SMILES,AmpC inh no det
CCN(C(=O)c1ccccc1Cl)c1ccccc1,2%
Cc1ccc(CN2C(=O)CCC2C(=O)NC2CC2)cc1 (stereo not drawn),1%
O=C(NC1=NCCS1)c1cc(-c2ccccc2)nn1-c1ccccc1,6%
COc1ccc(-n2c(O)c(/C=N/n3cnnc3)c3ccccc3c2=O)cc1,27%
O=C(Nc1ccccc1O)c1cc(S(=O)(=O)N2CCOCC2)ccc1Cl,-1%
CCOCCCN=Cc1c(O)n(Cc2ccccc2)c(=O)[nH]c1=O,10%
CCOC(=O)/C=C1\SCC(=O)N1Cc1ccc(Br)cc1,36%
COCCSc1ccccc1C(=O)N1CCCC1,5%
Cc1c(Cl)cccc1NC(=O)CN1C(=O)CSc2ncccc21,3.2µM*[single pt active]
c1ccc(CNCCN2CCNCC2)nc1,-3%
CCCCn1nnnc1SCC(=O)Nc1ccc2c(c1)OCCO2,0%
CCc1c(C)nc2ncnn2c1N1CCCC(C(=O)NCCc2ccc(OC)cc2)C1 (stereo not drawn),34%
Cn1cc(C(=O)NCCN2CCN(c3ccccc3F)CC2)c2c3ccccc3n(C)c2c1=O,158%
CCOC(=O)c1[nH]c2c(c1C)C(=O)CC(c1ccc(N(C)C)cc1)C2 (stereo not drawn),18%
CCN(CCCNC(=O)C1CCN(S(=O)(=O)CC)CC1)c1ccccc1,48%
COc1cccc(C(=O)Nc2ccc(NC(=O)c3ccco3)nc2)c1,0%
Cc1n[nH]c(C)c1S(=O)(=O)N1CCCC(C(=O)NCc2cccs2)C1 (stereo not drawn),14%
Cc1onc(-c2c(F)cccc2Cl)c1C(=O)OCC(=O)NCc1ccco1,18%
COC(=O)c1c(NC(=O)CC2NCCNC2=O)sc2c1CCCC2 (stereo not drawn),63%
O=C(CC1Oc2ccccc2NC1=O)NC1CCCC1 (stereo not drawn),4%
Cc1c(C)c2c(C)[nH]nc2oc1=O,-5%
CCN(CC)S(=O)(=O)c1cccc(-c2nnc(SCC(=O)c3ccc(Cl)s3)n2C)c1,63%
CCP(=O)(CC)c1cccc(N)c1,-1%
CCOC(=O)c1c(N=CN(C)C)c(C#N)n2c1CCC2,0%
O=C(CSc1nnc(Cc2ccccc2)o1)N1CCc2ccccc21,-4%
COc1ccccc1CNc1ncnc2ccc(-c3ccc4c(c3)OCO4)cc12,-14%
CC1CCN(CCCNC(=O)c2cc3c(=O)n(C)c4ccccc4c3n2C)CC1,20%
O=C(O)CCC(=O)N1CCN(c2ccc(C(=O)c3ccc(F)cc3)cc2)CC1,-2%
CCOC(=O)c1ccc(NC(=O)CSCc2ccco2)cc1,-14%
O=C(CSc1nnc(-c2ccccn2)n1Cc1ccco1)c1ccc(Cl)cc1,31%
CN(c1ccccc1C(=O)Nc1ccc2c(c1)OCCO2)S(C)(=O)=O,-7%
CCCn1cc2c(c1-c1cccc(C)c1)c(=O)n(C)c(=O)n2C,16%
COCCCNC(=O)c1cn(C)c(=O)c2cc(OC)c(OC)cc12,0%
O=S(=O)(Nc1ccccn1)c1ccc(C2CCCCC2)cc1,3%
Oc1c(Br)cc(CN(Cc2cc(Br)c(O)c(Br)c2)C2CCCCC2)cc1Br,-19%[5.75 µM]
CCOc1cccc(C(=O)NC2CCCCC2)c1,12%
CCOCCCNC(=O)C1CCCN(S(=O)(=O)CC)C1 (stereo not drawn),0%
O=C(CCc1nc(-c2ccc(Cl)cc2)no1)OCc1ccc(Br)cc1,-6%
CCOC(=O)C1=C(N)Oc2cc(C)oc(=O)c2C12C(=O)N1c3c(cc(OC)cc32)C(C)=CC1(C)C (stereo not drawn),119%
c1ccc(CNc2ncncc2-c2ccc3c(c2)OCO3)cc1,-2%
COc1ccc2[nH]c(=O)c(CN(Cc3nnnn3CCc3ccccc3)CC3CCCO3)cc2c1 (stereo not drawn),68%
CCOC(=O)C1CCN(C(=O)Cc2c(C(=O)O)n(C)c3ccccc23)CC1,3%
CC(C)Sc1nc(-c2cccs2)nc2c1c(=O)n(C)c(=O)n2C,-4%
COC(=O)N1CCC[C@@]2(CCN(C(=O)Nc3ccc(OC)cc3)C2)C1,2%
CCOC(=O)CCc1cccc2c1CCC2=O,-5%
CCOC(=O)c1cc2occc2n1CC(=O)N1CCCc2ccccc21,37%
O=C(O)CCC(=O)c1c[nH]c2ccccc12,1%
COc1ccccc1NC(=O)C1=C(C)NC2=C(C(=O)CCC2)C1c1ccc2c(c1)OCO2 (stereo not drawn),40%
CCC(C)Sc1nc2c(c(=O)[nH]c(=O)n2C)n1C (stereo not drawn),6%
CCN(CC)S(=O)(=O)c1ccc2oc(C(=O)O)c(C)c2c1,-5%
# Other compounds follow.
SMILES,AmpC inh no det
CCOC(=O)C1CCN(C(=O)CN(c2ccc3c(c2)OCO3)S(C)(=O)=O)CC1,12%
CCC1CCCCN1Cc1nc2c(c(=O)n(C)c(=O)n2C)n1CC(C)C (stereo not drawn),37%
CCOc1ccc(C(=O)OCC(=O)Nc2nc(OC)cc(OC)n2)cc1OCC,26%
CCCCn1c(Cc2ccccc2)n[nH]c1=S,-8%
CC1(C)Cc2ccccc2-c2nc(NCCO)n(-c3ccccc3)c(=O)c21,105%
O=C(NCc1ccc2c(c1)OCO2)c1ccc(-n2cnnn2)cc1,-6%
COc1ccc(C(CNC(=O)c2ccc(OCC3CCCO3)cc2)N2CCOCC2)cc1 (stereo not drawn),95%
CCn1c(CNC(=O)c2ccc(OC)c(OC)c2)nnc1SCC(=O)Nc1ccccc1,43%
COc1ccc(C2CC(=O)C3=C(C2)Nc2ncnn2C3c2ccccc2)cc1 (stereo not drawn),4%
Cn1c(=O)cc(OCC(=O)NCCCN2CCN(Cc3ccccc3)CC2)c2ccccc21,68%
O=C(Cc1ccccc1)Oc1cccc(N2C(=O)CCC2=O)c1,8%
COc1ccc(-c2nc(CS(=O)CC(=O)NCc3cccnc3)c(C)o2)cc1OC (stereo not drawn),4µM*[single pt active]
Cc1cccc(N2CCN(C(=O)CSCc3c(C)noc3C)CC2)c1C,104%
Cc1cccc(CS(=O)(=O)Cc2ccc(C(=O)N3CCC4(CC3)OCCO4)o2)c1,30%
CS(=O)(=O)Nc1cccc(-c2nc(N3CCOCC3)c3ccccc3n2)c1,49%
COC(=O)N1CCC2(CCCN(C(=O)Nc3cccc(F)c3)C2)CC1,2%
COc1cccc(C(=O)CSc2nnc(CNc3nc(-c4ccccc4)cs3)n2C)c1,66%
COc1cccc(C2CC(c3c(F)cccc3Cl)n3nc(N)nc3N2)c1 (stereo not drawn),35%
CCN(CC)c1ccc(NC(=O)c2c(OC)cccc2OC)c(C)c1,-2%
Cc1ccc(-c2ccc(=O)n(CCC(=O)NCc3ccccn3)n2)cc1,25%
COCCn1c(=O)c(-c2cccc(C#N)c2)nc2cnc(Oc3cccc(Cl)c3)nc21,19%
COc1cc(NC(=O)C2CCN(S(=O)(=O)c3cccnc3)CC2)cc(OC)c1OC,25%
O=c1cc(-c2ccccc2)oc2cc(O)cc(O)c12,-12%[12.8 µM]
CC(=O)Nc1cnc(NC(=O)c2cccc(F)c2)cc1C,10%
O=C(CSc1nnc(CNC(=O)c2ccco2)o1)c1ccc(Cl)cc1,6%
CCCc1cc(=O)[nH]c(/N=C(\N)Nc2ccccc2)n1,-2%
CC12CN3CC(C)(CN(C1)C3c1cccnc1)C2=O (stereo not drawn),4%
COc1ccccc1N1CCN(S(=O)(=O)c2cnc[nH]2)CC1,0%
COc1ccc(CNC(=O)CCc2c(C)nc3ncnn3c2C)cc1,2%
CN1CCN(C(=O)c2cnn(-c3ccccc3)c2NC(=O)c2ccccc2F)CC1,0%
CCc1noc(C)c1C(=O)Nc1ncc(C)s1,1%
Cc1ccc2c(c1)CN1CN2Cc2cc(C)ccc21,26%
COc1ccc(-c2cc(C(F)(F)F)n3ncc(C(=O)O)c3n2)cc1OC,-6%
COc1ccc(OCCC(=O)N2CCCCC2)cc1,-8%
O=c1[nH]c(=O)n(Cc2ccc(F)cc2)c(O)c1C=NCCCN1CCOCC1,-15%
CN1CCC(OC(c2ccccc2)c2ccccc2)CC1,7%[12.8 µM]
CCOC(=O)c1[nH]c2ccc(OCC)cc2c1NC(=O)CN1CCN(c2ccccn2)CC1,89%
CCOc1ccc2nc(NCCNC(=O)C(C)C)c(C)cc2c1,47%
COc1ccc(-n2c(=O)c(-c3ccc(F)cc3)nc3cncnc32)cc1,6%
COC(=O)CSc1nnc(-c2cccnc2)n1-c1cc(OC)cc(OC)c1,33%
O=C(CSc1nccn1-c1ccc(Cl)cc1)Nc1ccc2c(c1)OCO2,2%
CC(=O)Nc1nonc1-c1nc2ccccc2n1Cc1ccccn1,4%
CNC(=O)CN(C#N)c1nc(N(C)C)nc(N(C)C)n1,1%
Cc1cc2c(c(=O)n1C1CC1)C(c1cccc(Cl)c1)C(C#N)=C(N)O2 (stereo not drawn),-6%
COc1cccc2c1[C@@H]1CN(CCCCn3c(=O)[nH]c4c(sc5ncc(-c6ccccc6)nc54)c3=O)C[C@H]1CO2,103%
Cc1ccccc1-c1nc(Cc2ccccc2)no1,4%
CCOC(=O)N1CCN(S(=O)(=O)c2ccc(F)c(C(=O)Nc3cc(C)cc(C)c3)c2)CC1,110%
O=C1CC(N2CCC(c3nc4ccccc4o3)CC2)C(=O)N1c1ccc(Cl)c(C(F)(F)F)c1 (stereo not drawn),148%
O=C(COC(=O)c1n[nH]c2ccccc12)NC(=O)NC1CCCCC1,-17%
COc1ccc(C2CC(=O)c3cnc(N)nc3C2)c(OC)c1 (stereo not drawn),0%
# Continued:
SMILES,AmpC inh no det
CCOC(=O)c1ccc(-n2c(=S)sc3c(=O)[nH]c(C)nc32)cc1,-12%
CC(CO)(CO)Nc1ncnc2ccccc12,4%[5.75 µM]
O=C1C2C3C=CC(C3)C2C(=O)N1c1ccccc1 (stereo not drawn),-4%
COc1ccc(-n2c(=O)c(-c3ccc(F)cc3)nc3cnc(N4CCOCC4)nc32)cc1,8%
CCOCCCNC(=O)c1cc2c(-c3ccc(Cl)cc3)nn(C)c2s1,130%
O=C(NCc1cccnc1)c1ccc2c(=O)n(CCCN3CCCC3=O)c(=S)[nH]c2c1,3%
CC(=O)c1oc2ccccc2c1N,8%
CCOC(=O)c1c(NC(=O)c2cc(C3CC3)on2)sc(C(C)=O)c1C,-20%
CN(C)CCC(c1ccc(Cl)cc1)c1ccccn1 (stereo not drawn),-1%
CC(=O)N1CCc2[nH]c3ccccc3c2C1,6%
CCOc1ccc(C2CC(c3ccc(CC)cc3)Nc3nc(N)nn32)cc1 (stereo not drawn),39%
Cn1c(O)c(C=NCc2ccco2)c(=O)n(C)c1=O,-6%
O=C(CCc1nc2ccccc2c(=O)[nH]1)NC1CCN(Cc2ccccc2)CC1,-2%
O=C(c1cc(C(F)(F)F)cc(C(F)(F)F)c1)N1CCC2(CCCN(c3ncccn3)C2)CC1,118%
O=C(CSc1ncnc2nc[nH]c12)N1CCN(c2ccccc2)CC1,8%
CCCOn1c(OCC(C)C)nc2ccccc2c1=O,21%
CC1CCCCN1CCNC(=O)c1ccc2c(=O)n(CCc3ccccc3)c(=O)[nH]c2c1 (stereo not drawn),33%
Cc1ccc(-c2nnc3c4ccccc4c(C)nn23)cc1S(=O)(=O)N1CCN(CCO)CC1,144%
Cc1ccc(OCC(=O)O)c(-n2nc3ccccc3n2)c1,3%
Cc1c(-c2ccccc2)nc(N)c(C#N)c1-c1ccco1,-7%
Cn1c(=O)cc(OCC(=O)NCCCN2CCN(c3ccccc3F)CC2)c2ccccc21,71%
CCOC(=O)C1CCCN(C(=O)CN(c2ccc(OC)cc2)S(=O)(=O)c2c(C)noc2C)C1 (stereo not drawn),108%
CCc1ccccc1N(CC(=O)N1CCN(c2ccccc2F)CC1)S(C)(=O)=O,70%
O=C(NCc1ccccc1)C(c1cccnc1)N(Cc1ccco1)C(=O)c1ccccn1 (stereo not drawn),-1%
NC1=C2NC=N[C@@H]2N(C/C=C\c2ccccc2)C=N1,-11%[5.75 µM]
CCOc1ccc(NC(=O)C/C(N)=N/O)cc1,-6%
CC(OC(=O)c1cccc(NS(C)(=O)=O)c1)C(=O)Nc1ccc(N2CCOCC2)cc1 (stereo not drawn),37%
OCCOCCO,-5%
O=C(c1cccc(F)c1)N1CCC2(CC1)CN(c1ccncc1)C2,-11%

# Rewritten bar-delimited: part of the list above
canonical_smiles | AmpC inh no det
O=C(c1cc(C(F)(F)F)cc(C(F)(F)F)c1)N1CCC2(CCCN(c3ncccn3)C2)CC1 | 118%
O=C(CSc1ncnc2nc[nH]c12)N1CCN(c2ccccc2)CC1 | 8%
CCCOn1c(OCC(C)C)nc2ccccc2c1=O | 21%
CC1CCCCN1CCNC(=O)c1ccc2c(=O)n(CCc3ccccc3)c(=O)[nH]c2c1 (stereo not drawn) | 33%
Cc1ccc(-c2nnc3c4ccccc4c(C)nn23)cc1S(=O)(=O)N1CCN(CCO)CC1 | 144%
Cc1ccc(OCC(=O)O)c(-n2nc3ccccc3n2)c1 | 3%
Cc1c(-c2ccccc2)nc(N)c(C#N)c1-c1ccco1 | -7%
Cn1c(=O)cc(OCC(=O)NCCCN2CCN(c3ccccc3F)CC2)c2ccccc21 | 71%
CCOC(=O)C1CCCN(C(=O)CN(c2ccc(OC)cc2)S(=O)(=O)c2c(C)noc2C)C1 (stereo not drawn) | 108%
CCc1ccccc1N(CC(=O)N1CCN(c2ccccc2F)CC1)S(C)(=O)=O | 70%
O=C(NCc1ccccc1)C(c1cccnc1)N(Cc1ccco1)C(=O)c1ccccn1 (stereo not drawn) | -1%
NC1=C2NC=N[C@@H]2N(C/C=C\c2ccccc2)C=N1 | -11%[5.75 µM]
CCOc1ccc(NC(=O)C/C(N)=N/O)cc1 | -6%
CC(OC(=O)c1cccc(NS(C)(=O)=O)c1)C(=O)Nc1ccc(N2CCOCC2)cc1 (stereo not drawn) | 37%
OCCOCCO | -5%
O=C(c1cccc(F)c1)N1CCC2(CC1)CN(c1ccncc1)C2 | -11%

# Assay outcomes: PubChem BioAssay, National Center for Advancing Translational Sciences (NCATS)
